Source: PubChem BioAssay (National Center for Advancing Translational Sciences (NCATS))
VDR inh = Inhibitors of the vitamin D receptor (VDR): qHTS. 400,000 tested, 0.93% active. Vitamin D3 receptor (Homo sapiens), P11473. AID 504847, 2011. Potency, µM, for the others: max response, negative = inhibition, usual class: inhibitors. VDR-SRC2-3 peptide fluorescence polarization, 2 h; active means well fitted inhibition curve with a large enough effect; inconclusive means small, poorly fitted or top-dose-only effect, or another doubt; inactive means no such curve, though single readings can be large or run the other way; further: series mostly up to about 120 µM
Target sequence (P11473 whole entry, looked up): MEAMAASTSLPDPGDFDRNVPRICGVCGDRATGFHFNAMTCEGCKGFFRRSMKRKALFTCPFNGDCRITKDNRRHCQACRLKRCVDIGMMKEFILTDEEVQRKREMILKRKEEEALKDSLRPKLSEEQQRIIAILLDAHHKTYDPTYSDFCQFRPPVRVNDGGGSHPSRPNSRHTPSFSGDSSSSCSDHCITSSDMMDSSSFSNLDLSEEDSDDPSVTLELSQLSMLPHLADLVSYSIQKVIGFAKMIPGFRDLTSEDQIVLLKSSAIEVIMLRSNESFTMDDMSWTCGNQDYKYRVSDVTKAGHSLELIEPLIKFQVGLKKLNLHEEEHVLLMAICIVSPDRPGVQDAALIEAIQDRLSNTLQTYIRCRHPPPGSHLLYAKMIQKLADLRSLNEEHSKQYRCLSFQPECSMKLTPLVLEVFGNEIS
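Signal is fluorescence polarization, reporting how far test compounds block the interaction of VDR with the SRC2-3 coregulator peptide after a 2 h room-temperature incubation.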
Numbers without * were called inactive; u = inconclusive; & = joins results of further samples. On the % scale 0 is the no-effect control and ±100 the full control effect; potency means the concentration at half of the fitted maximal effect. The list is partial; the hit share may differ from the screen's.

cpd	VDR inh	molecule
1	-19%	CN(C)S(=O)(=O)c1cccc(-c2cn3ccccc3n2)c1
2	-6%	Cc1ccc(CCNC(=O)c2ccc3nc4ccccc4c(=O)n3c2)cc1
3	-2%	COc1cccc(C(=O)Nc2ccc(-n3nncc3-c3ccccc3)cc2)c1
4	12%	S=C(Nc1ccc2nsnc2c1)N1CCCC1
5	-12%	COC(=O)c1ccc(COc2ccc3c4c(c(=O)oc3c2)CCC4)o1
6	5%	COc1ccc(N(CC(=O)NCc2ccccc2C)S(=O)(=O)c2ccc(C)cc2)cc1OC
7	-2%	Cc1ccccc1OCc1ccc(-c2nc(C#N)c(N3CCN(c4cccc(Cl)c4)CC3)o2)o1
8	-5%	O=C1NC2(CCCCC2)C(=O)N1c1ccccc1
9	11%	O=C(CC1(O)C(=O)Nc2ccccc21)c1cccnc1 (stereo not drawn)
10	-2%	CNC(=S)NNS(=O)(=O)c1ccc(OC)cc1OC
11	-2%	O=C(CSc1nnc(-c2ccco2)o1)NC(=O)C1COc2ccccc2O1 (stereo not drawn)
12	-18%	COc1ccc(/C=N/NC(=O)c2ccncc2)cc1CN1CCN(c2ccc(F)cc2)CC1
13	-5%	Cc1cc2c(nn1)CCc1nonc1-2
14	11%	COc1ccccc1NC(=O)N(CCN1CCCC1)Cc1cc2cc(C)ccc2[nH]c1=O
15	17%	COc1ccccc1NC(=O)C(Sc1ccccc1)c1ccccc1 (stereo not drawn)
16	-7%	Cc1cc(O)c(C(c2ccccc2)N2CCN(c3ccc(F)cc3)CC2)c(=O)n1Cc1ccco1 (stereo not drawn)
17	-19%	Cc1cc([N+](=O)[O-])ccc1Nc1nc2ccccc2n2cnnc12
18	7%	Cc1ccc(Nc2ccccc2)cc1
19	u	CN1C(=S)N(c2cccnc2)C(=O)/C1=C\c1ccc(C(C)(C)C)cc1
20	-7%	CCC(Sc1nc2ccccc2c(=O)n1CCN1CCOCC1)C(=O)NCc1cccnc1 (stereo not drawn)
21	-4%	CC/C(=N\NC(=S)NC(C)C)c1ccc(OC(F)F)cc1
22	-8%	Cc1cccc(-c2nc(SCC(=O)N(C)c3ccccc3)c3c(=O)n(C)c(=O)n(C)c3n2)c1
23	-20%	CCCn1c(SCC(=O)c2[nH]c(C)c(C(C)=O)c2C)n[nH]c1=O
24	-14%	CCOC(=O)c1c(NC(=O)C(Sc2ccccc2)c2ccccc2)sc(C(=O)N(C)C)c1C (stereo not drawn)
25	14%	COc1ccc(Cl)cc1NC(=O)Cn1cc2c(n1)CCC(C)C2 (stereo not drawn)
26	4%	CSc1cc(N2CCOCC2)nc(-c2ccccc2Cl)n1
27	-2%	CCOC(=O)C1(CCCc2ccccc2)CCN(CC(O)CO)CC1 (stereo not drawn)
28	-3%	COc1ccc(OC)c(C(C)NC(=O)C(C)n2cc([N+](=O)[O-])cn2)c1 (stereo not drawn)
29	0%	O=C(COC(=O)/C=C/c1ccccc1Cl)NC(=O)NC1CCCC1
30	-18%	COc1ccc(-c2nc3nc(C)cc(C)n3c2Nc2c(C)cccc2C)cc1
31	-1%	COC(=O)c1c(NC(=O)c2ccc(S(=O)(=O)N3CCCC(C)C3)cc2)sc2c1CCN(C(C)C)C2 (stereo not drawn)
32	-4%	COc1cccc(OCCSc2nc3ccccc3c(=O)[nH]2)c1
33	10%	CC(C)n1nc(C(=O)Nc2nnc(SCc3c(Cl)cccc3Cl)s2)c2ccccc2c1=O
34	50µM*	Oc1ccc(NCc2ccccc2OCc2ccccc2)cc1
35	5%	COc1ccc2cc(C3(C)NC(=O)N(CC(=O)N4CCCCC4)C3=O)ccc2c1 (stereo not drawn)
36	7%	COc1cc(C(=O)N2CC(C)OC(C)C2)c([N+](=O)[O-])cc1OC (stereo not drawn)
37	-15%	CCOC(=O)N1CCN(C(=O)CCC2CCCC2)CC1
38	5%	COc1ccc(/C=C/c2nc3ccccc3c(=O)o2)cc1
39	-3%	O=C(COC(=O)c1cnccn1)c1ccc(Cl)c([N+](=O)[O-])c1
40	6%	CCOC(=O)C1CCCN(C(=O)C(CCSC)NC(=O)COc2ccccc2)C1 (stereo not drawn)
41	22%	CCOC(=O)COc1cc(N)c(Cl)cc1Cl
42	-5%	CCCn1nc2cc(C(=O)NCC34CC5CC(CC(C5)C3)C4)ccc2c1OCC
43	15%	CCN(c1ccccc1)S(=O)(=O)c1ccc(OC)c(NC(=O)CNCCc2ccccc2)c1
44	-10%	NC(=O)C1CCCNC1 (stereo not drawn)
45	-17%&15%	Cc1ccc(NC(=O)CC(C)S(=O)(=O)c2ccc3c(c2)NC(=O)CO3)c(Cl)c1 (stereo not drawn)
46	-14%	CCOC(=O)c1ccccc1NC(=O)CSc1nnnn1C1CCCCC1
47	7%	O=C(Nc1ccccc1)N(Cc1ccccc1)C1=NCCS1
48	8%	C[C@H](CO)N1C[C@H](C)[C@@H](CN(C)C(=O)Nc2ccccc2)Oc2ccc(NC(=O)Cc3ccccc3)cc2C1=O
49	-9%	Cc1ccc(S(=O)(=O)C2(C(=O)N3CCN(C4CCCCC4)CC3)CC2)cc1
50	8%	O=C(Cc1ccccc1F)N1CCC(c2nc3c(nnn3Cc3ccc(F)cc3)c(=O)[nH]2)CC1

Carrying on.
cpd	VDR inh	molecule
51	-2%	Cc1ccc(N2C(=O)CSCC2=O)cc1
52	5%	Cc1ccc([N+](=O)[O-])cc1S(=O)(=O)Nc1ccccn1
53	-4%	CCn1c(C)c(C(C)=O)c(N2CCN(C(=O)c3ccco3)CC2)nc1=S
54	u	COc1ccccc1NC(=O)c1cc([N+](=O)[O-])ccc1N1CCOCC1
55	-27%	O=[N+]([O-])c1ccc(/C=N/NC2=NS(=O)(=O)c3ccccc32)cc1
56	0%	O=C(CSc1nnc(-c2ccccc2)n1C1CCCCC1)Nc1ccc(S(=O)(=O)Nc2ccccn2)cc1
57	-8%	COc1ccc(-c2nn3c(-c4ccccc4C)nnc3c3ccccc23)cc1
58	7%	Cc1ccc(S(=O)(=O)N(C)c2ccc(OCC(=O)OCc3ccc(C#N)cc3)cc2)cc1
59	1%	CC1CCCC(NC(=S)NC(=O)c2cncc(Br)c2)C1C (stereo not drawn)
60	0%	Cc1ccc(OCC(=O)N/N=C/c2cn(Cc3ccccc3)c3ccccc23)cc1
61	1%	COc1ccc(NC2CCCN(C(=O)c3c(C)noc3C)C2)cc1 (stereo not drawn)
62	-7%	O=C(CCC1CCCCC1)NCCN1C2=NC[C@@H](Cc3ccccc3)N2C[C@H]1Cc1ccc(O)cc1
63	-5%	N#Cc1c2n(c3c(=S)nc[nH]c13)CCCCC2
64	-10%	COc1ccc(S(=O)(=O)Nc2ccc(C(F)(F)F)cc2)cc1OC
65	-7%	CCOC(=O)C(NC(C)=O)(N1CCc2ccccc2C1)C(F)(F)F (stereo not drawn)
66	-2%	COC(=O)C1=C(C)NC(C)=C(C(=O)OC)C1c1ccccc1OCc1c(C)no[n+]1[O-]
67	-1%	CN(C)Cc1ccccc1-c1cc(NCc2cccs2)ncn1
68	19%	Cc1ccnc2nc(C(=O)Nc3nccs3)nn12
69	4%	CC1CCCCC12NC(=O)N(CC(=O)Nc1ccccc1-c1ccccc1)C2=O (stereo not drawn)
70	17%	Cc1ccc(S(=O)(=O)n2nc(C)cc2C)cc1
71	9%	Cc1cc(C)c2c(C)c(C(=O)N3CCC(c4nc5ccccc5s4)CC3)oc2c1
72	-16%	CCN1CCN(CCNC(=O)C2CCCN(Cc3nc(-c4cccc(Cl)c4)oc3C)C2)CC1 (stereo not drawn)
73	-1%	O=C(C1CCC1)N1CCc2cc(S(=O)(=O)NCc3ccccn3)ccc21
74	2%	Cc1cccn2c(=O)c3cc(C(=O)NCCN4CCOCC4)c(=N)n(CCN4CCOCC4)c3nc12
75	-4%	O=C(Cc1cccc2ccccc12)N/N=C/c1ccc(OC(=O)/C=C/c2ccco2)cc1
76	u	COC(=O)[C@@H](Cc1c[nH]c2ccccc12)NC(=O)c1cc(=O)[nH]c2ccccc12
77	-10%	CC1CCCCN1C(=O)COC(=O)c1cc(-c2cccs2)nn1-c1ccccc1 (stereo not drawn)
78	0%	COc1cccc(NC(=O)CSc2nnc(NC(=O)NC3CCCCC3)s2)c1
79	-17%	Cc1ccc(Oc2ccccc2/C=N/O)cc1
80	-15%	O=C(NC1CCCC1)C(c1cccnc1)N(C(=O)c1csnn1)C1CCCC1 (stereo not drawn)
81	-4%	CC(C)(C)C(=O)N1CCC[C@@]1(CO)C(=O)O
82	-5%	CC1CC(C)CN(C(=O)c2cccc(S(=O)(=O)N3c4ccccc4CC3C)c2)C1 (stereo not drawn)
83	-7%	CSCCC(NC(=O)c1cccc(C)c1)C(=O)NNC(=O)c1cccs1 (stereo not drawn)
84	-17%	CCOC(=O)C(=O)c1c(-c2ccc(C)cc2)nc2ccccn12
85	-3%	CC(C)(C)NC(=O)Nc1ccc(Br)cc1
86	-10%	CCOc1ccc2c(c1)c(=O)c(C(=O)c1ccc(CC)cc1)cn2CC(=O)Nc1ccccc1OC
87	-1%	Cc1ccc(NC(=O)C(Cc2ccccc2)n2cccc2)c(C)c1 (stereo not drawn)
88	-11%	CCSc1ccc2cc(OC)ccc2[n+]1CC
89	-4%	CCOC(=O)c1c(NC(=O)COC(=O)c2ccncc2)sc(C)c1C
90	-8%	Cc1ccc(Nc2ccc([N+](=O)[O-])cn2)cc1Cl
91	u	Cc1ccc(CC(=O)NCc2ccc(Cl)cc2)cc1
92	5%	O=C(Nc1ccc2c(c1)OCO2)c1cccc(F)c1
93	9%	Cc1ccc(NC(=S)NCC(O)c2ccccc2)c(C)c1 (stereo not drawn)
94	5%	O=C1NC(=Nc2ccc(O)cc2)S/C1=C/c1ccco1
95	24%	CCOC(=O)C1CCCN(C(=O)c2ccc(C)c(S(=O)(=O)N3CCCCC3)c2)C1 (stereo not drawn)
96	7%	OCCC1CN(CC(c2ccccc2)c2ccccc2)CCN1C1CCCC1 (stereo not drawn)
97	-2%	Cc1cccc(N2CCN(Cc3ccoc3)CC2)c1C
98	-5%	O=C(COC(=O)c1cc(Br)ccc1O)NC1CCCCCC1
99	-13%	C[C@H](NC(=O)c1ccco1)C(=O)Nc1cccc([N+](=O)[O-])c1
100	-7%	Cc1cc(C)nc(NNC2=CC(=[N+]3CCCC3)CCC2)n1

The results go on.
cpd	VDR inh	molecule
101	10%	COc1ccc(S(=O)(=O)N2CCN(CC(=O)NC3CC3)CC2)cc1
102	-1%	Cc1ccnc(NS(=O)(=O)c2ccc(NC(=O)c3ccc(C)c(C)c3)cc2)n1
103	0%	COc1ccc(C(=O)O/N=C/c2ccc(S(=O)(=O)c3ccc(Cl)cc3)nc2)cc1
104	-12%	COc1ccccc1NC(=O)c1ccc(S(=O)(=O)N2CCCC(C)C2)cc1 (stereo not drawn)
105	-14%	Nc1ccccc1NC(=O)c1ccc(CNC(=O)OCc2cccnc2)cc1
106	9%	COc1cc(OC)cc(C(=O)Nc2nnc(Cc3ccc(OC)c(OC)c3)s2)c1
107	8%	N#Cc1c(SCC(N)=O)nc(-c2ccccc2)c2c1CCCC2
108	-10%	CCOc1cc(N2CCOCC2)c(OCC)cc1NC(=O)CSc1n[nH]c(N)n1
109	-5%	CCOc1ccc(N(CC(=O)OC)S(=O)(=O)c2ccc(OC)c(OC)c2)cc1
110	u	O=C(c1ccco1)N1CCC2(CCN(Cc3ccncc3)CC2)CC1
111	10%	COC(=O)c1sc2ncn(CC(=O)N(C)C3CCCCC3)c(=O)c2c1C
112	-20%	CCOC(=O)c1ccccc1NC(=O)c1ccc2c(Cl)c3c(nc2c1)CCC3
113	-1%	O=C(NCCn1ccc2ccccc21)c1ccc(S(=O)(=O)N2CCOCC2)cc1
114	-1%	O=C(c1cc(-c2ccccc2)nc2ccccc12)N1CCN(c2ccccn2)CC1
115	0%	COc1cccc(NC(=O)c2ccc3nc(C)sc3c2)c1
116	-2%	O=C(CNC(=O)c1cccc(Br)c1)N/N=C/c1ccc[nH]1
117	0%	COC(=O)[C@@]1(Cc2ccc(F)cc2)[C@H]2c3cc(C(=O)N4CCCC4)n(Cc4ccc(C(F)(F)F)nc4)c3C[C@H]2CN1C(=O)c1ccccc1
118	-11%	COc1cc2c(C)nc3onc(-c4ccccc4)c3c2cc1OC
119	0%	CC1CCc2nn(CC(=O)NCc3ccc4c(c3)OCO4)cc2C1 (stereo not drawn)
120	0%	COc1ccccc1N1CCN(C(=O)c2oc3ccccc3c2NC(=O)C(C)Oc2ccccc2)CC1 (stereo not drawn)
121	-9%	O=C(/C=C/c1ccco1)NCc1ccc2c(c1)OCO2
122	u	CCOC(=O)c1c(-c2ccccc2)csc1NC(=O)c1cc(-c2ccccc2OC)on1
123	-16%	COc1nc(N)nc2c1ncn2[C@@H]1O[C@H](CO)[C@@H](O)[C@@H]1O

Grouped by structure, those above with a Cl atom.
cpd	VDR inh	molecule
7	-2%	Cc1ccccc1OCc1ccc(-c2nc(C#N)c(N3CCN(c4cccc(Cl)c4)CC3)o2)o1
25	14%	COc1ccc(Cl)cc1NC(=O)Cn1cc2c(n1)CCC(C)C2 (stereo not drawn)
26	4%	CSc1cc(N2CCOCC2)nc(-c2ccccc2Cl)n1
29	0%	O=C(COC(=O)/C=C/c1ccccc1Cl)NC(=O)NC1CCCC1
33	10%	CC(C)n1nc(C(=O)Nc2nnc(SCc3c(Cl)cccc3Cl)s2)c2ccccc2c1=O
39	-3%	O=C(COC(=O)c1cnccn1)c1ccc(Cl)c([N+](=O)[O-])c1
41	22%	CCOC(=O)COc1cc(N)c(Cl)cc1Cl
45	-17%&15%	Cc1ccc(NC(=O)CC(C)S(=O)(=O)c2ccc3c(c2)NC(=O)CO3)c(Cl)c1 (stereo not drawn)
72	-16%	CCN1CCN(CCNC(=O)C2CCCN(Cc3nc(-c4cccc(Cl)c4)oc3C)C2)CC1 (stereo not drawn)
90	-8%	Cc1ccc(Nc2ccc([N+](=O)[O-])cn2)cc1Cl
91	u	Cc1ccc(CC(=O)NCc2ccc(Cl)cc2)cc1
103	0%	COc1ccc(C(=O)O/N=C/c2ccc(S(=O)(=O)c3ccc(Cl)cc3)nc2)cc1
112	-20%	CCOC(=O)c1ccccc1NC(=O)c1ccc2c(Cl)c3c(nc2c1)CCC3
